A488 autofl = qHTS Assay for Spectroscopic Profiling in A488 Spectral Region; compound autofluorescence, A488 spectral region, dye equivalency; hits give high values; max dye equivalency, M; 0.1% of 59,000 active; AID 591, 2007; active = above 10 nM dye equivalent; inconclusive = 1 to 10 nM; inactive = 1 nM or less; about half of its hits are not listed in these tables;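 further: highest value over a series up to 38 µM; compound alone in buffer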
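Autofluorescence read at ex 480/em 540 nm after 15 min RT in 100 mM Tris pH 8.0; compound signal normalized to A488 standard series on each plate, reported as dye-equivalent concentration at each test concentration.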
Resorufin fluor = qHTS Assay for Spectroscopic Profiling in Resorufin Spectral Region; max dye-equivalent concentration, M; 0.04% of 59,000 active; Compound fluorescence, resorufin region 547/598 nm, buffer; hits give high values; active = above 10 nM dye equivalent; inconclusive = 1 to 10 nM; inactive = 1 nM or less; a few of its hits are not listed in these tables; further: highest value over a series up to 38 µM
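Dye-equivalent concentration values derive from comparing each well's 547/598 nm fluorescence against resorufin standards included on every plate. Incubation was 15 min at room temperature in 100 mM Tris, pH 8.0.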
AID923 = qHTS Assay for Allosteric/Competitive Inhibitors of Caspase-1: Spectroscopic Profiling in AFC Spectral Region; 1.1% of 75,000 active; Potency, µM (doses to about 57.5 µM), for inactives: at the highest dose fluorescence increase, most hits filed as activators; compound fluorescence, AFC spectral region (405/520 nm); almost no hit is shown here; active means well fitted activation curve with a large enough effect; inconclusive means small, poorly fitted or top-dose-only effect;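 further: potency means the concentration at half of the fitted maximal effect; 0% is about no effect; scaled to a free AFC standard on each plate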
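Titrations up to 57 uM read every 20 sec for 3 min (405/520 nm) with 50 nM caspase 1 and 5 uM Ac-WEHD-AFC, pH 7.5 HEPES buffer. Fluorescence-vs-time intercept gave baseline, scaled against on-plate AFC standard.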
TSHR agonist = qHTS Assay for Agonists of the Thyroid Stimulating Hormone Receptor | 0.48% of 73,000 active | Thyrotropin receptor (Homo sapiens), P16473 | AID 926, 2007 | Potency, µM (series often up to 57.1 µM), for inactives: at the top dose activation, hits mostly activators | HEK293-CNG-TSHR cells (CNG channel as cAMP sensor), membrane potential dye, cAMP; active = well fitted activation curve of enough size with the parental cells flat; inconclusive = any curve in the parental cells; inactive = parental cells flat and receptor cells flat or falling; further: potency means the concentration at half of the fitted maximal effect; % of control where 0% means no effect; weak receptor curves with flat parental cells got no call and are not listed
Target sequence (P16473 whole entry, looked up): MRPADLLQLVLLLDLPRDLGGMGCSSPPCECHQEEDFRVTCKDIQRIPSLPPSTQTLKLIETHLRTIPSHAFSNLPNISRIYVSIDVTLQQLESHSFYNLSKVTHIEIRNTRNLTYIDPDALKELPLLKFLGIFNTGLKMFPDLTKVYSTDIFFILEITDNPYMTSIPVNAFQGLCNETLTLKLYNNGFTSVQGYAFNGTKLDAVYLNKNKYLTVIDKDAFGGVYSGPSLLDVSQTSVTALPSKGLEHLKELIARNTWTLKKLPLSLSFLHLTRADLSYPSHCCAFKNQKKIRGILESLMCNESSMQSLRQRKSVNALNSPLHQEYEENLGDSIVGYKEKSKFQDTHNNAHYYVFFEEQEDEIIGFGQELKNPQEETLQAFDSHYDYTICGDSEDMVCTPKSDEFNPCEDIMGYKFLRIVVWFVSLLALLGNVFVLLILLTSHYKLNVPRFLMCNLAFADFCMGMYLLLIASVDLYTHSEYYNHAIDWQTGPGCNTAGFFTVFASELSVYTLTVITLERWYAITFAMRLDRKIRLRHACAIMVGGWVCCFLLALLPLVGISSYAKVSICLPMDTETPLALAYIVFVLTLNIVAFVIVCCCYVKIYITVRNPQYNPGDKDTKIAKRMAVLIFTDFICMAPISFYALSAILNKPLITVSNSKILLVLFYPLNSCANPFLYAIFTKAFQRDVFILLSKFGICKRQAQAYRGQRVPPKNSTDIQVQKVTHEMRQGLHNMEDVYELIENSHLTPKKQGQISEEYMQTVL
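cAMP rise detected as CNG-channel membrane depolarization by fluorescent dye (emission 590 nm), 30 min after compound, following 60 min dye loading containing 100 uM RO 20-1724 at room temperature. Cells: TSHR/CNG HEK 293, with parental CNG HEK 293 as control.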
A647 autofl = qHTS Assay for Spectroscopic Profiling in A647 Spectral Region; Compound fluorescence, A647 channel (570/671 nm), Tris buffer; AID 592, 2007; 59,000 tested, under 10 active; max dye-equivalent concentration, M; active means above 1 µM dye equivalent; inconclusive means 0.1 to 1 µM; inactive means 0.1 µM or less;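 further: values scaled relative to a standard on each plate; highest value over a series up to 38 µM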
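Tris 100 mM pH 8.0; cpd + A647 stds pin-transferred; 15 min RT; CCD imager, ex 570/em 671. Output = A647-equivalent conc. per cpd conc.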
An asterisk follows results filed as active; i = inactive; ? = inconclusive; nt = not tested or not shown; [ ] = dose if it differs, or a comment. The list is partial; count on the stated rates, not on these rows.

Value order – A488 autofl, Resorufin fluor, AID923, TSHR agonist, A647 autofl
COc1cccc(NC(=O)Cn2nnc(-c3ccccc3N)n2)c1
 : i, i, -1.7%, -9%, 9.6e-09
O=C(Nc1ccc(NC(=O)C2CC2)cn1)c1ccccc1Cl
 : i, i, 1.1%, ?, 4.6e-08
N#CC1C(=O)NC(N2CCN(c3ccccc3)CC2)=NC12CCCCC2 (stereo not drawn)
 : i, i, 0.0%, 2%, 1e-09
COc1ccc(-c2nnc(SCC(=O)Nc3cccc(Cl)c3)o2)cc1
 : i, i, 1.1%, 8%, 5e-09
CCOc1ccccc1-n1c(SCC(=O)NC(C)CC)nnc1-c1ccoc1C (stereo not drawn)
 : i, i, -4.1%, -4%, 2.5e-08
CN(CC(=O)Nc1nccs1)S(=O)(=O)c1ccc(F)cc1
 : i, i, -0.4%, -4%, 1.1e-09
Cc1ccc(OCc2nc(C#N)c(N3CCCC3)o2)cc1
 : i, i, -1.2%, ?, 3.8e-09
COc1cccc(NC(=O)Cn2c(-c3cncs3)nc3ccccc32)c1
 : i, i, -3.4%, 24%, 2.9e-08
C[C@@H]1C[C@H]2[C@@H]3C[C@H](F)C4=CC(=O)C=C[C@@]4(C)[C@]3(F)[C@H](O)C[C@]2(C)[C@@]1(O)C(=O)CO
 : i, i, 0.1%[25.7 µM], -3%[25.6 µM], 4.4e-09
C=CCSc1nnc2nc3c(nn12)c1cc(C)ccc1n3CC=C
 : nt, nt, -2.2%, -41%[inhibitor], nt
Cc1cc(C)cc(NS(=O)(=O)c2ccc3[nH]cc(C(=O)NCc4ccco4)c(=O)c3c2)c1
 : i, i, 2.6%, -6%, 2.7e-08
Cc1ccc(Nc2nc(CSc3nnnn3C)cs2)cc1
 : i, i, 0.0%, 7%, 2.9e-09
COc1ccc(NC(=O)CCc2nc(-c3ccccc3F)no2)cc1
 : i, i, 0.5%, 2%[11.4 µM], 1e-09
CCN(CC)C(=O)CSc1ncnc2c1nnn2-c1ccc(F)cc1
 : nt, nt, 2.3%, 4%, nt
Cc1cc(Cl)nc(NC(=O)CSc2ccc(Cl)cc2)n1
 : i, i, 18%[11.5 µM], 3%[11.4 µM], 3.1e-08
Cc1ccc(C2C(C#N)=C(N)SC(N)=C2C#N)cc1
 : i, i, 1.4%, -1%, 4.6e-08
O=C(c1cnsn1)N1CCN(c2ccccc2)CC1
 : i, i, -2.6%, 4%, 4.4e-08
CCCCC1CCC(C(=O)Nc2c(C)n(C)n(-c3ccccc3)c2=O)CC1 (stereo not drawn)
 : i, i, -1.6%, 10%, 2.9e-08
COC(=O)c1[nH]c2cc(C)ccc2c1NC(=O)CN1CCc2cc(OC)c(OC)cc2C1
 : i, i, -0.8%, 4%, 6.8e-09
CC(C)Oc1ccc(C(=O)N(CN2CCCC2=O)c2ccc(F)cc2)cc1
 : i, i, -0.4%, -6%, 3.4e-08
O=C(/C=N/O)Nc1ccccc1C(=O)O
 : nt, nt, 1.4%, 1%, nt
COc1ccc(C(=O)N2CCC3(CCCN(C(=O)Nc4cccc(C#N)c4)C3)CC2)cc1
 : i, i, 0.5%, 25µM*, 3.2e-08
CCS(=O)(=O)Nc1ccc(C(=O)CC2(O)C(=O)Nc3ccc(Br)cc32)cc1 (stereo not drawn)
 : i, i, 0.2%, -3%, 3.9e-08
CCOC(=O)c1cccnc1SCC(=O)N(C)c1ccccc1
 : i, i, 4.3%, 0%, 2.3e-09
Cc1ccc(-n2c(Cc3cccn3C)nnc2SCC(N)=O)cc1
 : i, i, 1.5%, 1%, 3.4e-09
COc1ccc(CC(=O)Nc2ccc(N3CCN(c4ccc(OC)cc4)CC3)c(C#N)c2)cc1
 : i, i, 0.8%, -2%[11.4 µM], 5.5e-09
Cc1nnc(SCc2cc(=O)n3[nH]cnc3n2)s1
 : i, i, -0.9%, -1%, 8.8e-09
COc1ccc(CCn2c(C)cc(C(=O)CSc3nnnn3C)c2C)cc1
 : i, i, -0.8%, ?, 3.8e-09
O=C(NCCc1cn2ccccc2n1)c1ccccc1F
 : i, i, 0.3%, -4%, 1e-09
CCc1nc(SCC(=O)N2CCOCC2)c2c(=O)n(C)c(=O)n(C)c2n1
 : nt, nt, -2.9%, -5%, nt
O=C(NCCOC(=O)c1ccncc1)c1ccccc1
 : nt, nt, 0.0%, 1%, nt
COCCOC(=O)C1=C(C)Nc2nc(C)nn2C1c1ccccc1 (stereo not drawn)
 : i, i, 1.0%, 3%, 9e-09
C=CC1C(N2CCOCC2)C(C)(C)S1(=O)=O (stereo not drawn)
 : nt, nt, 1.1%, -3%, nt
CC(=O)[C@H]1[C@@H]2C(=O)N(c3cccc(Cl)c3)C(=O)[C@@H]2[C@H]2c3ccccc3C=CN21
 : i, i, nt, nt, 1e-09
CC(C(=O)O)C1SC(=O)NC1=O (stereo not drawn)
 : i, i, 0.7%, ?, 1e-09
O=C1c2ccccc2C(O)N1c1ccc(Cl)cc1 (stereo not drawn)
 : nt, nt, -1.1%, 0%, nt
N#CC1=C(N)N(c2ccc(Br)cc2)C2=C(C(=O)CCC2)C1c1cccnc1 (stereo not drawn)
 : i, i, 0.9%, -1%[11.4 µM], 1e-09
CC1CCCCC1NC(=O)CN(C)S(=O)(=O)c1cccc2nsnc12 (stereo not drawn)
 : i, i, -0.5%, -1%, 1e-09
COc1ccccc1/C=C/C1=CC2(C)CC1(C)C(c1ccccc1OC)CC2=O (stereo not drawn)
 : nt, nt, 0.2%[11.5 µM], 8%[11.4 µM], nt
O=C(Cc1ccccc1)Nc1ccc2oc(-c3cccnc3)nc2c1
 : i, i, -0.7%, -9%, 8.2e-09

Of the compounds above, these have a furan ring, fused or not.
Value order – A488 autofl, Resorufin fluor, AID923, TSHR agonist, A647 autofl
CCOc1ccccc1-n1c(SCC(=O)NC(C)CC)nnc1-c1ccoc1C (stereo not drawn)
 : i, i, -4.1%, -4%, 2.5e-08
Cc1cc(C)cc(NS(=O)(=O)c2ccc3[nH]cc(C(=O)NCc4ccco4)c(=O)c3c2)c1
 : i, i, 2.6%, -6%, 2.7e-08

Additional records.
Value order – A488 autofl, Resorufin fluor, AID923, TSHR agonist, A647 autofl
Brc1ccc2nc3c(n2c1)CCCC3
 : nt, nt, -1.0%, ?, nt
Cc1ccc(-c2cn3c(n2)CCCC3)cc1
 : i, i, 2.6%, 18%, 3.3e-08
CCOP(=O)(c1ccccc1Cl)C1(O)CCCCC1 (stereo not drawn)
 : i, i, 0.0%, 1%, 3.7e-08
O=C1c2ccccc2C(=O)N1c1nc2nccc(-c3ccccc3)n2n1
 : i, i, -3.3%, 10%, 1e-09
COc1ccc(NC(=O)c2cc3ccccc3o2)cc1
 : nt, nt, -2.2%, ?, nt
Cc1ccc(C(=O)CSc2nc(N)cc(=O)[nH]2)cc1
 : i, i, -1.1%, 4%, 1e-09
CC1CCc2nc(N)c(C#N)c(-c3ccncc3)c2C1 (stereo not drawn)
 : i, i, 1.1%, 4%, 2e-08
CSc1nccc(Nc2ccccc2)c1C#N
 : i, i, -1.0%, nt, 2.2e-08
CN[C@H]1[C@H](O)[C@@H](O[C@@H]2[C@H](O)[C@@H](O[C@H]3OC(CN)=CC[C@H]3N)[C@@H](N)C[C@H]2N)OC[C@@]1(C)O
 : i, i, 0.0%[25.7 µM], -4%[25.6 µM], 1e-09
Cc1cc(N2CCc3ccccc32)n2ncnc2n1
 : i, i, 10%, 12%, 3.3e-08
Cc1sc2nc(CSc3nc4ccccc4c(=O)n3CCCN3CCOCC3)[nH]c(=O)c2c1C
 : ?, i, 7.3%, 5%, 1e-09
O=C(Cn1nnc(-c2ccccc2)n1)OCc1ccccc1
 : i, i, -3.3%, 2%, 1.6e-08
Cn1c(=O)c2cn3ncccc3c2n(C)c1=O
 : i, i, -0.9%, -1%, 2.7e-08
Cc1cnc(C(=O)OCC(=O)N2CCN(C(=O)c3ccco3)CC2)cn1
 : i, i, -0.9%, -12%, 1e-09
CC1=C(\C=C/C(C)=C/C=C\C(C)=C\CO)C(C)(C)CCC1
 : i, i, nt, 2%, 1e-08
CCCCN(CCCC)CCn1cnc2c([nH]c3ccc(OC)cc32)c1=O
 : nt, nt, -0.2%, -1%, nt
C[C@@]1(CCOCc2ccccc2)NC(=O)NC1=O
 : i, i, -1.4%[11.5 µM], -3%[11.4 µM], 1e-09
CC(=O)OC(C(=O)Nc1ccccc1)C(C)S(=O)(=O)c1ccccc1 (stereo not drawn)
 : i, i, -2.0%, nt, 2.3e-08
O=C(NCCN1CCCCCC1)c1ccc(N2CCCC2=O)cc1
 : i, i, 0.7%, 2%, 1e-09
CCc1ccc(NC(=O)c2noc3c2CCCCC3)cc1
 : i, i, 0.2%, -5%, 1e-09
COC(=O)c1ccccc1NC(=O)c1sc(N)nc1C
 : i, i, 5.4%, -1%, 1.5e-09
CCN(CC)CCN1C(=O)C(=O)/C(=C(/O)c2ccncc2)C1c1ccccc1F (stereo not drawn)
 : i, i, -0.1%, -5%, 1e-09
COc1cccc(Cn2c(=O)c(C)nc3cnc(Oc4cccc(Cl)c4)nc32)c1
 : i, i, 3.4%, ?, 1e-09
CN(c1nnc(N)s1)C1CCCCC1
 : nt, nt, -3.1%, 2%, nt
CCSCCOC(=O)C1=C(C)N(C)C(=O)NC1c1cc(OC)ccc1OC (stereo not drawn)
 : nt, nt, 0.2%, 25µM*, nt
COc1ccc2c(c1)C(=O)N(CCc1ccc(S(=O)(=O)NC(=O)NC3CCCCC3)cc1)C(=O)C2(C)C
 : i, i, 1.5%[25.7 µM], 4%[25.6 µM], 5.8e-09
CCOc1ccc(S(=O)(=O)Nc2ccccc2C(=O)Nc2ccccc2N2CCOCC2)cc1
 : i, i, -0.2%, 7%, 1.2e-08
O=C(Nc1nccs1)c1cccc(S(=O)(=O)N2CCCCC2)c1
 : i, i, 0.9%, nt, 2.3e-08
COc1ccc(-n2ncc3c(NC(C)C)ncnc32)cc1
 : nt, nt, 1.7%, -1%, nt
Nc1nonc1-c1nc2ccccc2n1CC(=O)NC1CCCC1
 : i, i, -0.4%, ?, 5.9e-08
CN(C(=O)c1ccccc1)c1nc2ccccc2s1
 : i, i, -0.7%, 10%, 2.2e-09
Cc1cc(C(=O)CSc2nnnn2C)c(C)n1CCc1ccc(Cl)cc1
 : i, i, -0.5%, 5%, 2.6e-08
CS(=O)(=O)Nc1cccc(-c2nc(NCc3ccccc3)c3ccccc3n2)c1
 : i, i, -0.2%, ?, 4.4e-08
COc1ccc(C(C#N)N2CCCCC2)cc1OC (stereo not drawn)
 : i, i, -0.9%, ?, 6.4e-09
O=S(=O)(O)c1ccc(N=Nc2ccccc2)cc1
 : i, i, -2.8%[11.5 µM], -1%[11.4 µM], 5.9e-08
Cc1ccc(-n2ccnc2SCC(=O)N(CC(C)C)C2CCS(=O)(=O)C2)c(C)c1 (stereo not drawn)
 : i, i, -0.5%, 7%, 1e-09
O=C(c1c[nH]c2ccc(S(=O)(=O)N3CCC4(CC3)OCCO4)cc2c1=O)N1CCOCC1
 : i, i, 0.5%, ?, 1e-09
CC(C)CCC(CCN1CCOCC1)c1ccc2c(c1)OCO2 (stereo not drawn)
 : i, i, -2.7%, 15%, 8.7e-09
O=S(=O)(c1ccccc1)N1CCC2(CCCN(Cc3ccncc3)C2)CC1
 : i, i, -0.8%, ?, 1e-09
Cn1c(=O)c(C(=S)NC(=O)C2CC2)c(N)n(Cc2ccccc2)c1=O
 : i, i, -1.1%, ?, 8.1e-09
Cc1ccc(CNC(=O)CCCNS(=O)(=O)c2cccc3nonc23)cc1
 : i, i, 0.3%, -1%, 1e-09
O=C1[C@H]2CCn3c(=O)n(-c4ccccc4)c(=O)n3[C@H]2[C@H](O)[C@H]2O[C@@H]12
 : nt, nt, -0.6%[11.5 µM], 6%[11.4 µM], nt
O=S(=O)(Nc1cccnc1)c1ccc(Cl)c(C(F)(F)F)c1
 : i, i, 0.4%, nt, 1e-09
Cc1ccccc1NC(=O)CC1SC(=NC2CCCCC2)NC1=O (stereo not drawn)
 : i, i, -0.3%, -4%, 1e-09
